# High-throughput results deposited in PubChem by National Center for Advancing Translational Sciences (NCATS).
# Cruzain noTriton – qHTS Assay for Promiscuous and Specific Inhibitors of Cruzain (without detergent) | purified cruzain, Z-FR-AMC fluorescence, no detergent | Cruzipain (Trypanosoma cruzi), P25779 | hit rate 2.3% among 200,000 | Potency, µM, for the others: max response, negative = inhibition, hits mostly inhibitors;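 note: plate controls were enzyme without inhibitor for no effect and buffer without enzyme for full effect; nearly all actives have a fitted effect of over 40% in size; top concentration of the series not given in the record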
# Target sequence (P25779 123-467 limits assumed): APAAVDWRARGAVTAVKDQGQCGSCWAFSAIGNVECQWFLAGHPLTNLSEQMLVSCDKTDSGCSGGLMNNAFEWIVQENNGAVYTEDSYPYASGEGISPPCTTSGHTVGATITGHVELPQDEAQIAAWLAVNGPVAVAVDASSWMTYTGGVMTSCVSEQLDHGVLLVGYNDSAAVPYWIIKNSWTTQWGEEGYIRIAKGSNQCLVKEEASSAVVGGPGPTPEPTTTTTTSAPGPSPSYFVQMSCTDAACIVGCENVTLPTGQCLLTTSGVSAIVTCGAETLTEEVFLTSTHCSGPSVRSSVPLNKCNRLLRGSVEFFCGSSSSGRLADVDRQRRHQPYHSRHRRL
#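 Purified cruzain at 1.5 nM, pre-incubated 15 min with compound at room temperature in 100 mM sodium acetate pH 5.5, 5 mM DTT, 0.00005% Triton X-100. Reaction started with 2 uM Z-FR-AMC; AMC fluorescence increase over 60 s gives rate.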
# MARV entry inh – qHTS for inhibitors of binding or entry into cells for Marburg Virus. Marburg virus pseudotyped entry inhibition, cell reporter; control for the full effect not named in the record; about a third of the inactives were read at about 46 µM. Potency, µM (highest dose often 37.8 µM), for inactives: top-dose activity change, negative = inhibition, hits mostly inhibitors. hit rate 1.8% among 300,000; active = well fitted inhibition curve with a large enough effect; inconclusive = small, poorly fitted or top-dose-only effect, or effect the other way; inactive = flat fitted curve, though single readings scatter; tested in HEK293 cells; about a fifth of its hits are not listed in these tables; note: % is set by controls: 0 for no effect and ±100 for the full control effect; luciferase read-out
# SARS PLpro yeast – qHTS of Yeast-based Assay for SARS-CoV PLP; AID 485353, 2010; Potency, µM (top dose mostly 32.9 µM), inactives show top-dose activity, positive = growth rescue; S. cerevisiae expressing SARS-CoV PLpro, growth rescue; control for the full effect not named in the record; hit rate 0.19% among 330,000; active means well fitted rising curve with a large enough effect; inconclusive means small, poorly fitted or top-dose-only effect; inactive means no such curve, though single readings can be large or run the other way; note: 0% is about no effect; nearly all actives have a fitted effect of over 55% in size; growth read by luminescence after 48 h
# StopGo reporter – High Throughput Screening for Foot and Mouth Disease Virus Antivirals. AID 1159524, 2015. hit rate 1.2% among 410,000. Potency, µM (highest dose often 57.9 µM), without a hit: at the top dose signal change, negative = less light. human cells with a luciferase reporter of 2A StopGo recoding; control for the full effect not named in the record; active = well fitted falling curve with a large enough effect; inconclusive = small, poorly fitted or top-dose-only effect; inactive = no such curve, though single readings can be large or run the other way; tested in HEK293T cells; note: % is set by controls: 0 for no effect and ±100 for the full control effect; nearly all actives have a fitted effect of over 45% in size; luciferase light after 4 h
# RE007 growth inh – qHTS Assay for Inhibitors of the HIV-1 protein Vpr. S. pombe RE007 Vpr strain, BacTiter-Glo ATP luminescence, 24 h; control for the full effect not named in the record. Potency, µM (top dose mostly 92.2 µM), for the others: at the highest dose activity change, negative = less growth. hit rate 0.21% among 360,000; active = well fitted falling curve with a large enough effect; inconclusive = small, poorly fitted or top-dose-only effect; inactive = no such curve, though single readings can be large or run the other way;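 note: % is set by controls: 0 for no effect and ±100 for the full control effect; nearly all actives have a fitted effect of over 50% in size; the assay follows cell death caused by Vpr and the record does not say whether a fall means rescue or toxicity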
#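 Fission yeast RE007 carrying one integrated HIV-1 vpr copy, seeded at OD 0.01 in PMG+AL medium with 23 nL pinned compound. Grown 24 h at 30 degrees; viability read by BacTiter-Glo luminescence after 5 min.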
# Cruzain inh Det – qHTS Assay for Promiscuous and Specific Inhibitors of Cruzain (with detergent) | Cruzipain (Trypanosoma cruzi), P25779 | purified cruzain, Z-FR-AMC fluorescence, 0.01% Triton | Potency, µM, for inactives: max response, negative = inhibition, hits mostly inhibitors | hit rate 0.43% among 200,000;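 note: plate controls were neutral wells for no effect and buffer without enzyme for full effect; nearly all actives have a fitted effect of over 40% in size; top concentration of the series not given in the record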
#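 Detergent-containing arm of a paired screen for aggregation-based inhibition: 0.01% Triton X-100 present. Cruzain at 1.5 nM cleaved 2 uM Z-FR-AMC at pH 5.5 with 5 mM DTT; AMC fluorescence gain over 60 s measured activity.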
# LASV entry inh – qHTS for Inhibitors of binding or entry into cells for Lassa Virus; Lassa virus pseudotype entry inhibition, cell reporter; control for the full effect not named in the record; Potency, µM (series often up to 37.9 µM), without a hit: top-dose activity change, negative = inhibition, hits mostly inhibitors; hit rate 1.2% among 300,000; active means well fitted inhibition curve with a large enough effect; inconclusive means small, poorly fitted or top-dose-only effect, or effect the other way; inactive means flat fitted curve, though single readings scatter; tested in HEK293 cells; note: % is set by controls: 0 for no effect and ±100 for the full control effect; nearly all actives have a fitted effect of over 50% in size; luciferase read-out
# NS1 function inh – qHTS Assay for Inhibitors of Influenza NS1 Protein Function. S. cerevisiae slowed by influenza A NS1, growth recovery by OD600. Potency, µM (doses to about 46.1 µM), without a hit: at the top dose activity, positive = more growth. hit rate 0.4% among 270,000. AID 2326, 2010; active means well fitted rising curve with a large enough effect; inconclusive means small, poorly fitted or top-dose-only effect; inactive means no such curve, though single readings can be large or run the other way; note: nearly all actives have a fitted effect of over 50% in size
#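 Compounds were scored for reversing the slow growth caused by influenza A NS1 in S. cerevisiae, measured by optical density at 600 nm. Assay medium contained 2% galactose at pH 6.0; NS1-free yeast of the same strain were the positive control.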
# Numbers without * were called inactive; ? = inconclusive; nt = no result given; [ ] = dose if it differs, or a comment. Unless noted, calls come from the whole dose curve; as a rule, active = well fitted curve in the direction sought with a large enough effect; inconclusive = small, poorly fitted or top-dose-only effect, or another doubt; inactive = no such curve, though single readings can be large; an effect the other way counts as inactive or inconclusive. Potency is the fitted concentration of half-maximal effect.
SMILES,Cruzain noTriton,MARV entry inh,SARS PLpro yeast,StopGo reporter,RE007 growth inh,Cruzain inh Det,LASV entry inh,NS1 function inh
CCC(Oc1ccccc1)C(=O)NCc1cccnc1 (stereo not given),-2%,-10%,-1%,-9%,13%,3.0%,7%,1%
Cc1cccc(N(C(=O)c2cnc3n(c2=O)CCS3)C2CCCCC2)c1,-2%,?,10%,21%,7%,-4.2%,-5%,-1%
Cc1cccc(C2(c3cccc(C)c3)OC(=O)c3ccccc32)c1,-5%,3%,-24%,-10%,4%,-3.2%,21%,15%
O=C(O)CC(NC(=S)NCc1ccccc1)C(=O)O (stereo not given),-2%,-5%,-29%,-12%,0%,2.4%,3%,-16%
CCc1ccccc1-n1c(C)nc2cc(C(=O)NCCc3ccc(Cl)cc3)ccc21,10%,nt,nt,-18%,nt,-0.5%,12%[46.1 µM],nt
Cn1c(N)c(C(=O)COC(=O)CC(NC(=O)c2ccccc2Cl)c2ccccc2)c(=O)n(C)c1=O (stereo not given),nt,-4%[46.1 µM],2%,-19%,-5%,nt,7%,nt
CC(=O)Nc1nc(CC(C)C)cc(-c2ccccc2)c1C#N,nt,-2%[46.1 µM],-1%,1%,7%,nt,1%[46.1 µM],-1%
CN(C)c1ccc(NC(N)=S)cc1,-5%,1%[46.1 µM],7%,-9%,1%,-2.7%,7%,19%
Brc1ccc(Br)c2cnccc12,nt,24%,nt,?,-21%,nt,-12%,nt
NC(=O)c1ccc(NC(=O)c2cccc(Oc3ccccc3)c2)cc1,nt,-2%[46.1 µM],1%,29%,22%,nt,12%,nt
Cc1ccc(-c2c(C)nn3c(N4CCOCC4)cc(C)nc23)cc1,nt,nt,2%,-12%,13%,nt,nt,2%
O=S(=O)(c1cccc(Br)c1)N1CCN(c2ccnc3cc(Cl)ccc23)CC1,nt,?,-12%,?,-22%,nt,-4%,-93%
COc1ccc(C(C(=O)NC(C)(C)C)N(Cc2ccc(C)cc2)C(=O)CCC(=O)Nc2cc(C)on2)cc1 (stereo not given),nt,nt,0%,-3%,8%,nt,nt,-2%
c1ccc(CN2CCC(N3CCC(N4CCCCCC4)CC3)CC2)cc1,nt,?,9%,-19%,4%,nt,?,27%
CCOc1ccc(N2CCc3c(C)nc(SC)nc32)cc1,nt,?,-2%,-4%,-27%,nt,?,nt
O=C(c1cc2ccccc2oc1=O)N(c1ccccc1)C1C=CS(=O)(=O)C1 (stereo not given),5%,-16%,9%,-10%,15%,2.4%,10%,1%
CCCCCCCC(O)CC(CC1CCCCC1)C(=O)NN (stereo not given),?,?,-13%,-6%,-12%,-1.6%,6%,0%
CC1S/C(=N/N=C/c2cccc([N+](=O)[O-])c2)NC1=O (stereo not given),nt,nt,1%,-8%,-3%,nt,nt,-10%
CCNS(=O)(=O)c1ccc(NC(=O)c2cncc(Br)c2)cc1,-3%,-9%,-8%,4%,-10%,0.5%,12%,0%
COc1ccc(CCN=C(N)NS(=O)(=O)c2ccc(C)c(C)c2)cc1,nt,?,2%,-1%,-18%,nt,5%[46.1 µM],nt
C(=N\Nc1nc2ccccc2s1)/c1ccc2c(c1)OCO2,-4%,?,1%,-14%,-1%,-0.9%,?,16%
CN(C)c1cccc(C(=O)NC2CCCc3ccccc32)c1 (stereo not given),nt,0%[46.1 µM],-4%,37%[activator],-26%,nt,-1%[46.1 µM],-22%
Cc1ccc(C)c(S(=O)(=O)c2nnn3c2nc(Nc2ccc(C)c(C)c2)c2sccc23)c1,9%,nt,nt,-5%,nt,-0.6%,-4%[46.1 µM],nt
Cc1cc(C)c(NC(=O)C(C)n2nnc3sc(-c4ccccc4)cc3c2=O)c(C)c1 (stereo not given),?,-14%[46.1 µM],nt,0%,nt,3.7%,17%[46.1 µM],nt
CC(C)NC(=O)c1ccccc1NC(=O)c1nsc2ccccc12,24%,nt,nt,-3%,nt,1.3%,-19%[46.1 µM],nt
# Continuation:
SMILES,Cruzain noTriton,MARV entry inh,SARS PLpro yeast,StopGo reporter,RE007 growth inh,Cruzain inh Det,LASV entry inh,NS1 function inh
CC1(C)C=C2C(=NN(c3ccccc3)C(N)=C2C#N)CO1,nt,?,-3%,12%,13%,nt,-13%[46.1 µM],1%
CCOC(=O)c1c(NC(=O)CSc2nc3ccc(OC)cc3[nH]2)sc2c1CC(C)(C)NC2(C)C,nt,?,-2%,-22%,-17%,nt,?,nt
O=C(NCc1ccco1)C1CCN(Cc2ccc(F)cc2)CC1,5%,2%[46.1 µM],1%,-13%,-7%,5.0%,15%,-6%
NC(=O)C1CCN(c2ccnc3cc(Cl)ccc23)CC1,nt,nt,0%,-4%,22%,nt,nt,5%
CCCOc1ccc(C2C(C#N)=C(N)Oc3nc[nH]c(=O)c32)cc1OC (stereo not given),-12%,7%[46.1 µM],15%,-17%,-8%,-9.9%,5%,5%
Cc1ccc(NC(=O)CSc2nc3ccccc3n2CC(=O)N(C)C2CCCCC2)cc1C,11%,nt,nt,-5%,nt,0.0%,?,nt
Cc1ccnc2c(N3C(=O)C4C5c6ccccc6C(c6ccccc65)C4C3=O)cccc12 (stereo not given),?,?,10%,?,-16%,-0.3%,21µM*,-8%
CCOC(=O)c1ccc(NC(=O)NC2CCN(CC(=O)NCc3ccc4c(c3)OCO4)CC2)cc1,1%,?,-1%,2%,-15%,-2.8%,-4%,-4%
Cc1ccc(S(=O)(=O)N[C@@H](CO)C(=O)N[C@@H](Cc2ccc(O)cc2)C(=O)O)cc1,nt,nt,1%,-7%,13%,nt,nt,-4%
COc1ccc(CSc2nncn2N)cc1[N+](=O)[O-],-11%,1%,16%,-6%,15%,0.9%,-3%,5%
CN1c2ccsc2C(=O)/C(=C\Nc2cccc(C(F)(F)F)c2)S1(=O)=O,nt,3%,0%,4%,1%,nt,18%,6%
CCCCc1nn2c(=O)cc(COC(=O)COc3ccc(C)cc3)nc2s1,0%,nt,nt,0%,nt,-1.0%,-4%[46.1 µM],nt
CCOC(=O)c1cnc(-n2nc(C)cc2C)nc1Nc1ccc(N(C)C)cc1,?,?,20%,-17%,-14%,-5.3%,7.3µM*,-84%
O=S(=O)(c1ccc2nnn(OCc3ccccc3)c2c1)N1CCOCC1,nt,-2%,nt,-19%,2%,nt,3%,nt
COc1ccc(S(=O)(=O)Nc2ccc(F)cc2F)cc1C(=O)N1CCOCC1,nt,-12%[46.1 µM],5%,75%[activator],5%,nt,nt,-1%
Cc1cccc(NC(=O)CN(C)S(=O)(=O)c2ccc(Cl)cc2)n1,2%,-2%,0%,-30%,-8%,2.1%,3%,-4%
CCOC(=O)N1CCc2c(sc3c2c(=O)n(Cc2ccccc2)c(=O)n3CC(=O)Nc2ccc(C)cc2C)C1,1%,-8%[46.1 µM],nt,-12%,nt,-0.4%,-23%[46.1 µM],nt
CCOc1ccc(S(=O)(=O)n2ccnc2)c2ccccc12,-18%,nt,0%,6%,5%,-0.8%,nt,0%
C=CCNC(=S)NNC(=O)c1ccc(OCC)cc1,3%,1%,-4%,7%,14%,4.6%,11%,10%
CCN(CC)S(=O)(=O)c1csc(C(=O)NC2CCCCC2)c1,-7%,?,11%,30%[activator],-11%,-0.8%,?,4%
CC(C)(Nc1ccccc1)C(=O)c1ccccc1,-5%,?,17%,-11%,-5%,-3.4%,?,8%
Cc1cccc(N2C(=O)CSC23C(=O)N(CC(=O)NCCc2ccccc2)c2ccccc23)c1 (stereo not given),1%,nt,nt,18%,nt,-4.6%,-4%[46.1 µM],nt
Cc1ccc(C(=O)c2oc3ccccc3c2NC(=O)COc2ccc(Cl)c(C)c2)cc1,10%,19%[46.1 µM],nt,-8%,nt,-0.8%,9%[46.1 µM],nt
O=c1c2ccccc2nc(SCc2nnc(-c3ccccc3)o2)n1-c1ccc(F)cc1F,-29%,?,0%,-15%,21%,-3.3%,?,8%
CCC(C)Nc1ccc(NC(C)CC)cc1 (stereo not given),-19%,nt,3%,?,?,-4.4%,nt,nt
# Next entries
SMILES,Cruzain noTriton,MARV entry inh,SARS PLpro yeast,StopGo reporter,RE007 growth inh,Cruzain inh Det,LASV entry inh,NS1 function inh
CCOc1ccc(OCC)c(S(=O)(=O)n2cnc(C)c2)c1,nt,nt,2%,25%,7%,nt,nt,-4%
COc1ccccc1OCCNC(=O)c1cc(=O)[nH]c2ccccc12,nt,nt,1%,-4%,4%,nt,nt,3%
CCCCSc1nc2c(cc1C#N)CCC2,-10%,-20%,3%,19%,3%,-1.1%,?,-5%
Nn1c(-c2ccccn2)nnc1-c1ccccn1,-4%,-5%,-11%,51%[activator],-9%,3.7%,-5%,-17%
Cc1c(NP(=O)(Oc2ccccc2F)Oc2ccccc2F)c(=O)n(-c2ccccc2)n1C,-3%,12%,10%,-11%,-5%,-1.7%,-2%,-1%
CSc1nc2c(c(=O)[nH]1)C(c1cccc(Cl)c1Cl)CC(=O)N2 (stereo not given),nt,8%[46.1 µM],-2%,-4%,-5%,nt,6%,nt
CCC(C)NC(=O)c1c(C)oc2nc(C)nc(N3CCOCC3)c12 (stereo not given),-6%,nt,nt,30%[activator],nt,-0.9%,11%[46.1 µM],nt
COc1cc(F)ccc1CN1CCC(n2nccc2NC(=O)C2CCOC2)CC1 (stereo not given),nt,3%,0%,-5%,-1%,nt,3%,3%
CCOC(=O)C1=C(N)N(c2ccccc2)C2=C(C(=O)CCC2)C1c1cccnc1 (stereo not given),0%,14%,4%,-16%,26%,-4.0%,-8%,-6%
COCCNC(=S)Nc1ccc2[nH]c(=O)[nH]c2c1,nt,nt,0%,-12%,-5%,nt,nt,0%
Cc1ccc(C)c(CSc2nnc(C)c(=O)n2N)c1,nt,0%[46.1 µM],-1%,14%,7%,nt,8%,nt
C=CCC1(CC=C)CCCN1C(=O)CC1C(=O)NCCN1Cc1ccc(OC)c(OC)c1 (stereo not given),nt,nt,0%,3%,5%,nt,nt,-1%
CCOC(=O)c1cccc(S(=O)(=O)N(CCO)Cc2cc3cc(OC)ccc3[nH]c2=O)c1,15%,-1%,13%,-21%,2%,-3.2%,-32%[14.3 µM],-16%
Cc1cc(C)c(S(=O)(=O)NCC2CCC(C(=O)NCCc3ccccc3)CC2)c(C)c1 (stereo not given),7%,nt,nt,-10%,nt,-1.9%,-5%[46.1 µM],nt
